Compound activity: PubChem, National Center for Advancing Translational Sciences (NCATS)
Mito fusion act = blocks mitochondrial division or promotes mitochondrial fusion; actives 0.23% (n = 320,000); AID 485298; Potency, µM (titrated, usually from 46.1 µM), for the others: top-dose growth rescue (activation), most hits filed as activators; S. cerevisiae fusion-defective mutant growth rescue, CellTiterGlo 48 h;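 note: potency is the fitted concentration of half-maximal effect; % of control where 0% means no effect; nearly all actives have a fitted effect of over 45% in size; temperature-sensitive fusion mutants such as fzo1-1 at 37 °C on non-fermentable ethanol glycerol medium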
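Yeast fusion mutant, YPEG (non-fermentable carbon), compound, 48 h at 37C non-permissive; CellTiterGlo added, 10 min RT, luminescence read. Rescued growth = division inhibition.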
ELG1 repair inh = blocks ELG1-dependent DNA repair in HEK293T cells | AID 504467 | HEK293T ELG1-luciferase reporter, luminescence, 16 h; DNA damage induced by 5-fluorouridine | Potency, µM (doses to about 46.1 µM), without a hit: at the top dose activity change, negative = inhibition, usual class: inhibitors | actives 2.3% (n = 330,000); note: potency is the fitted concentration of half-maximal effect; % is set by controls: 0 for no effect and ±100 for the full control effect; nearly all actives have a fitted effect of over 55% in size
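Step one: seed 2,000 cells per well. Step two: pin-transfer compound or DMSO alongside 5-fluorouridine. Step three: incubate 16 hr, 37 °C, 5% CO2. Step four: add ONE-Glo, wait 30 min, read luminescence.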
VP16 counter = counter-screen for ROR gamma inhibitors: Gal4-VP16 reporter | Potency, µM (titrated, usually from 53.6 µM), for inactives: at the top dose activity, negative = inhibition, most hits filed as inhibitors | actives 3.5% (n = 310,000) | Drosophila S2 Gal4-VP16 UAS-luciferase, luminescence, 20 h | AID 2546;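 note: Gal4-VP16 expression switched on by copper sulfate through the metallothionein promoter; potency is the fitted concentration of half-maximal effect; % is set by controls: 0 for no effect and ±100 for the full control effect; nearly all actives have a fitted effect of over 50% in size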
RORgamma inh = inhibitors of mouse ROR gamma transcriptional activity. Drosophila S2 Gal4-RORgamma UAS-luciferase reporter, 20 h. actives 5.4% (n = 310,000). Potency, µM (series often up to 53.6 µM), for inactives: top-dose activity change, negative = inhibition, most hits filed as inhibitors. P51450; note: potency is the fitted concentration of half-maximal effect; % is set by controls: 0 for no effect and ±100 for the full control effect; nearly all actives have a fitted effect of over 60% in size
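Schneider cells (Drosophila), stable Gal4 DBD–ROR gamma + UAS-luc; 1 hr cmpd preincubation; Cu2+ induction 700 uM final; 20 hr ambient; luminescence.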
Menin MLL FP TR = inhibitors of human menin-MLL interaction, mutant MLL peptide | Potency, µM (top dose mostly 61.6 µM), for inactives: at the highest dose FP activity change, negative = inhibition, most hits filed as inhibitors | actives 0.23% (n = 270,000) | Menin + Texas Red MLL mutant peptide, fluorescence polarization | O00255 | AID 1768; active = well fitted inhibition curve with a large enough effect in the polarisation, with a control signal flat, not every such curve was filed as active; inconclusive = small, poorly fitted or top-dose-only effect, or effect the other way, or a change in a side signal; inactive = no such curve, though single readings can be large or run the other way; the % refers to the polarisation; note: potency is the fitted concentration of half-maximal effect; % of control where 0% means no effect; many of its hits are not listed in these tables
Target sequence (O00255 whole entry, looked up): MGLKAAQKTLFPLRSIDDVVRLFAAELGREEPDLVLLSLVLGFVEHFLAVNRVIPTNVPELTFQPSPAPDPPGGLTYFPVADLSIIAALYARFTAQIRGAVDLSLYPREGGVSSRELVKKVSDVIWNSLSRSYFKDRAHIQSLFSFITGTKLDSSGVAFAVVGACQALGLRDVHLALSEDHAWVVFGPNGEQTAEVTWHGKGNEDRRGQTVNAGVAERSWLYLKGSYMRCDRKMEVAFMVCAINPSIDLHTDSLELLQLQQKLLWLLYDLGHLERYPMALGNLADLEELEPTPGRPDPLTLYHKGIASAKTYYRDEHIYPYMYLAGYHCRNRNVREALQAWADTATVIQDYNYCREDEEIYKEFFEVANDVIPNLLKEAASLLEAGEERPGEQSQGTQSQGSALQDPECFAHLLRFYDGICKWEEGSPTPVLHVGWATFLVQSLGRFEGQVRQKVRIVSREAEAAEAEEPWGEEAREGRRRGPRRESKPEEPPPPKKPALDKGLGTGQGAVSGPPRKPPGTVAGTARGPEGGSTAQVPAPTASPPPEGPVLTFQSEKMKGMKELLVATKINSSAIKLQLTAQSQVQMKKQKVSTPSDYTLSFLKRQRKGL
KCNH2 3.1 block = KCNH2 3.1 (human) potassium channel inhibition. actives 0.95% (n = 340,000). U2OS KCNH2 3.1, thallium flux FluxOr; hits give low values. activity change, % (tested at about 1.8 µM);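 active = maximum activity change below -70%; inconclusive = maximum activity change from -70% to -50%; inactive = maximum activity change above -50%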;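 note: thallium influx rate constant from kinetic fluorescence after stimulation buffer; % is set by controls: 0 for no effect and ±100 for the full control effect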
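Thallium flux via FluxOr fluorescence (Red40 quencher, 45 min loading) in U2OS cells virally expressing the KCNH2 3.1 isoform (1.77 x 10^8 /mL virus, overnight at 37 C). Rate constants from 2-min kinetic reads post-stimulation, normalised to positive and negative controls.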
MBNL1-CUG inh = blocks human MBNL1 binding to CUG repeat RNA | Potency, µM (highest dose often 57.5 µM), for the others: at the top dose activity change, negative = inhibition, hits mostly inhibitors | actives 0.036% (n = 280,000) | Q9NR56 | TR-FRET MBNL1-His/biotin-(CUG)12 binding, 665/545 ratio; active = well fitted inhibition curve with a large enough effect in the signal ratio, with a control signal flat, not every such curve was filed as active; inconclusive = small, poorly fitted or top-dose-only effect, or effect the other way, or a change in a side signal; inactive = no such curve, though single readings can be large or run the other way; the % refers to the signal ratio; note: potency is the fitted concentration of half-maximal effect; % is set by controls: 0 for no effect and ±100 for the full control effect
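Compound titration spanned 92 nM–58 uM against the MBNL1-His/biotin-(CUG)12 complex. After 60 min at room temperature with 5 nM streptavidin-XL665 and 0.055 ng/ul terbium anti-His, ratiometric 665/545 nm emission (Ex 340 nm) normalized to controls.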
Active calls of the source: *; ? = inconclusive; · = no result given; & = joins results of further samples; [ ] = remark or other dose. Unless noted, calls come from the whole dose curve; as a rule, active = well fitted curve in the direction sought with a large enough effect; inconclusive = small, poorly fitted or top-dose-only effect, or another doubt; inactive = no such curve, though single readings can be large; an effect the other way counts as inactive or inconclusive. Some of the compounds tested; the hit share may differ from the screen's.

molecule	Menin MLL FP TR	Mito fusion act	MBNL1-CUG inh	VP16 counter	ELG1 repair inh	KCNH2 3.1 block	RORgamma inh
Cc1csc(NC(=O)Nc2ccccc2[N+](=O)[O-])n1	22.2%	0.3%	?	6.9%	?	5.9	-4.8%
O=C(c1ccc(S(=O)(=O)N2CCCC2)cc1)N(c1ccccc1)C1C=CS(=O)(=O)C1 (stereo not given)	1.2%	3.5%	1.3%	5.6%	-1.1%	-5.4	-20.8%
Cc1cc(C(=O)COC(=O)c2ccco2)c(C)n1Cc1ccco1	3.2%	2.2%	13.4%	-9.3%	?	-24.6	35.1%
Cc1c(C(=O)Nc2nc3ccccc3[nH]2)oc2ccccc12	38.2%[activator]	?	10.5%	5.01µM*	?	-0.9	0.891µM*
O=C(COC(=O)c1cccnc1Cl)c1ccc2c(c1)OCCO2	37.6%[activator]	1.4%	-1.6%	7.4%	?	-21.5	39.7%
NC(=O)c1ncn(C2OC(CO)C(O)C2O)n1 (stereo not given)	-0.5%	·	·	-9.1%	·	·	-17.8%
N/C(=N\OC(=O)c1cccs1)c1cccc(Br)c1	23.0%	-5.9%	-1.8%	-13.9%	?	-4.5	-1.3%
Nc1ccn(C2OC(CO)C(O)C2O)c(=O)n1 (stereo not given)	4.2%&0.1%	·	·	-21.0%&-5.3%	·	·	-30.6%&-16.9%
COc1ccc(-c2noc(-c3ccccc3F)n2)cc1	10.4%	1.0%	-9.6%	?	?	-5.4	?
O=C(COc1ccc(F)cc1)Nc1nccs1	9.7%	4.9%	-17.0%	-8.8%	?	-0.7	10µM*
Nc1c(C(=O)NCc2ccc3c(c2)OCO3)c2nc3ccccc3nc2n1CCCN1CCOCC1	3.2%	-21.8%	?	?	?	-13.4	16.4%
O=C(Nc1nnc(-c2ccco2)o1)c1ccc2ccccc2c1	12.4%	12.6µM*	·	1.12µM*	?	1.0	1.41µM*
O=C(Nc1cccc(Cl)c1)c1cc(-c2ccco2)on1	-19.1%	19.1%	2.9%	-12.6%	?	-6.6	3.6%
COc1ccccc1NC(=O)Nc1ccc2c(c1)OCCO2	24.5%	1.4%	-6.6%	3.7%	?	-0.1	-3.8%
COc1cccc(C(=O)Nc2ccc(C)cc2)c1	24.4%	-2.0%	-4.6%	?	?	4.2	?
O=C(Nc1ccc(-c2nc3ccccc3s2)cc1)C1=COCCO1	5.4%	0.6%	-14.8%	4.47µM*	?	2.6	2µM*
CC(C)(C)c1ccc(-c2nc3cc(N)ccc3o2)cc1	8.6%	2.8%	8.0%	·	?	-13.8	·
O=c1n(CCCN2CCN(c3cccc(Cl)c3)CC2)nc2ccccn12	-11.1%	-8.4%&0.1%	16.3%	-5.1%	0.7%	-5.1	6.8%
COc1ccccc1-c1noc(-c2ccccc2)n1	15.6%	9.2%	-8.0%	3.9%	?	19.4	-4.0%
O=C(C1CCCCC1)N1CC(=O)N2CCc3ccccc3C2C1 (stereo not given)	-0.6%&-7.7%&-4.5%	-2.1%&-0.5%	31.3%[activator]	-4.6%&-0.3%	-2.1%	·	-9.9%&0.2%
Cc1cc(NC(=O)c2cccs2)ccc1NC(=O)Cc1ccccc1	7.1%	3.7%	-0.1%	3.3%	9.4%	28.0	15.2%
CC(C)NC[C@H](O)c1ccc(O)c(O)c1	11.6%	0.6%&-7.6%&1.8%	·	-14.1%	22.8%	2.3	?
O=C(CSc1ccc(-c2ccc(F)cc2)nn1)N1CCCCC1	4.2%	-6.2%	9.3%	0.6%	?	14.4	?
COc1ccc(C2=NN(C(=O)c3ccncc3)C(c3ccccc3O)C2)cc1 (stereo not given)	12.4%	18.0%	0.0%	6.4%	-5.3%	26.4	14.1%
CCN1C(=O)c2ccc(C(=O)Nc3cccc(C(=O)O)c3)cc2C1=O	29.9%	-2.2%	?	?	-2.7%	-1.0	10µM*
c1ccc(-c2noc(-c3ccco3)n2)nc1	8.4%	-7.4%	2.0%	?	?	-0.2	?
COc1ccccc1C(=O)Nc1nc2cc3c(cc2s1)OCCO3	?	0.0%	21.4%	?	?	-17.5	?
COc1ccc(Cn2c(=O)n(Cc3ccco3)c(=N)c3c4c(sc32)COC(C)(C)C4)cc1	-11.8%	29.6%	-9.3%	-11.3%	7.31µM*	-0.8	39.5%
Cc1ccc(NC(=O)C(=O)Nc2ccccn2)cc1	5.9%	1.9%	·	5.62µM*	?	8.0	6.31µM*

In another format: results already given.
> O=C(COc1ccc(F)cc1)Nc1nccs1
  Menin MLL FP TR: 9.7%
  Mito fusion act: 4.9%
  MBNL1-CUG inh: -17.0%
  VP16 counter: -8.8%
  ELG1 repair inh: ?
  KCNH2 3.1 block: -0.7
  RORgamma inh: 10µM*
> O=C(Nc1nnc(-c2ccco2)o1)c1ccc2ccccc2c1
  Menin MLL FP TR: 12.4%
  Mito fusion act: 12.6µM*
  MBNL1-CUG inh: ·
  VP16 counter: 1.12µM*
  ELG1 repair inh: ?
  KCNH2 3.1 block: 1.0
  RORgamma inh: 1.41µM*
> Cc1cc(C(=O)COC(=O)c2ccco2)c(C)n1Cc1ccco1
  Menin MLL FP TR: 3.2%
  Mito fusion act: 2.2%
  MBNL1-CUG inh: 13.4%
  VP16 counter: -9.3%
  ELG1 repair inh: ?
  KCNH2 3.1 block: -24.6
  RORgamma inh: 35.1%
> COc1ccc(Cn2c(=O)n(Cc3ccco3)c(=N)c3c4c(sc32)COC(C)(C)C4)cc1
  Menin MLL FP TR: -11.8%
  Mito fusion act: 29.6%
  MBNL1-CUG inh: -9.3%
  VP16 counter: -11.3%
  ELG1 repair inh: 7.31µM*
  KCNH2 3.1 block: -0.8
  RORgamma inh: 39.5%

Three records picked at random from those above:
molecule	Menin MLL FP TR	Mito fusion act	MBNL1-CUG inh	VP16 counter	ELG1 repair inh	KCNH2 3.1 block	RORgamma inh
Cc1ccc(NC(=O)C(=O)Nc2ccccn2)cc1	5.9%	1.9%	·	5.62µM*	?	8.0	6.31µM*
COc1ccccc1NC(=O)Nc1ccc2c(c1)OCCO2	24.5%	1.4%	-6.6%	3.7%	?	-0.1	-3.8%
Nc1ccn(C2OC(CO)C(O)C2O)c(=O)n1 (stereo not given)	4.2%&0.1%	·	·	-21.0%&-5.3%	·	·	-30.6%&-16.9%
